Tgondii IFNg = T. gondii growth inhibition under IFN-gamma; Toxoplasma gondii growth in IFN-gamma-treated host cells; stronger effect = lower value; reference of the scale not given here; activity change, negative = inhibition, %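 (about 20 µM by stock and volumes)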; actives 3.8% (n = 69,000); AID 1259416;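 active = below -70%; inconclusive = fit judged invalid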;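 note: host cells are HeLa cells infected with Toxoplasma gondii; parasite growth read as luciferase light; one replicate is shown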
* marks the source's active call; other numbers are inactive results; i = inactive; ? = inconclusive; & = joins results of further samples. Only part of the results is shown. The share of hits here may be higher or lower than overall.

SMILES	Tgondii IFNg
O=C(c1cccs1)C(O)c1cccs1 (stereo unspecified)	53
Cc1cccc(-c2nc(C)c(CCNC(=O)C(=O)Nc3ccc(Cl)cc3)s2)c1	-22
CCn1ncc(-c2ccc(OC)cc2C)c1C(=O)OC	1
CC(=O)Nc1ncc(-c2cccc(C3CCCN(C(=O)OC(C)(C)C)C3)n2)s1 (stereo unspecified)	-61
N#C[C@H]1[C@@H](c2ccccc2)[C@@H](CO)N1C(=O)c1ccccc1F	10
CNC(=O)[C@H]1C[C@@H]2OCC[C@@H]2N(Cc2ccc(C)o2)C1	-29
CC(C)(C)c1ccc(C(=O)Nc2nc3ccccc3c(=O)s2)cc1	32
CCc1cc2c(=O)c(-c3nc4ccccc4s3)coc2cc1O	129
O=C(c1cccs1)N1CCN(S(=O)(=O)c2cc3c4c(c2)CCN4C(=O)CC3)CC1	19
O=C(NCC1CC1)[C@H]1[C@H](CO)[C@H]2Cn3c(ccc(-c4cccnc4)c3=O)[C@H]2N1Cc1cocn1	2
CCCNC(=O)N[C@@H]1C=C[C@H](CC(=O)N2CCN(C)CC2)O[C@H]1CO	-33
Cc1ccc(CN(Cc2ccncc2)Cc2ccnc(N3CCCC3)n2)cc1	-19
Cc1ccc(C)c(-c2coc(-c3ccc(NC(=O)Nc4ccc5c(c4)OCCO5)cc3)n2)c1	152
CC(=O)N1CCOCC2(CN(CC3CC3)CCO2)C1 (stereo unspecified)	-12
CN1CCN(C(=O)c2ccc(CC3CCCNC3)cc2)CC1 (stereo unspecified)	12
CO[C@@H]1CO[C@@]2(CCCN(C(=O)c3ccc4ncccc4c3)C2)C1	1
COc1ccc2c3c(n(C)c2c1)[C@@H](CO)N(C(C)=O)CC31CCN(C(=O)Nc2ccccc2F)CC1	13
CC(C)[C@H](NC(=O)c1cccc2nccnc12)C(N)=O	0
c1ccc(-c2ncn(Cc3cn[nH]c3-c3ccccc3)c2-c2cnc[nH]2)cc1	-10
O=C(CCc1c[nH]c2ccccc12)N1CCc2c(cc(-c3cccc(Cl)c3)c(=O)n2CC2CC2)C1	-13
S=C(Nc1cccnc1)NC1CCN(Cc2ccccc2)CC1	-29
CN(C)S(=O)(=O)c1ccc2c(c1)cc(C(=O)NCCc1ccccc1Cl)n2Cc1ccncc1	-43
Cc1ccc(NC(=O)C(CC(C)C)NS(=O)(=O)c2ccc3[nH]c(=O)ccc3c2)cc1 (stereo unspecified)	46
CN(Cc1ccccc1CN1CCCC1)C(=O)c1c[nH]c(=O)[nH]1	10
CC1CCN(c2ncnc3c2cnn3CC(=O)Nc2cccc(Cl)c2)CC1	-87*
CC1=C(C(=O)N2CCCC2)C2(CCN(S(=O)(=O)c3cccs3)CC2)OC1=O	49
Cn1cnc2c(-c3cccnc3)nc(C3CCN(C(=O)c4ccccn4)CC3)cc21	-11
CSc1nnc(Nc2ccc(Cl)cc2Cl)s1	-23
N#Cc1cccc(-c2ccc3c(c2)[C@H]2[C@H](CCN2C(=O)CN2CCOCC2)[C@@H](CO)N3)c1	2
Cc1ccc(C(=O)N2C[C@H](N(C)C)C[C@H]2C(=O)O)cc1NC(=O)C(C)(C)C	4
COc1ccc(CN2CC3(C2)[C@H](c2ccccc2)[C@@H](CO)N3CC2CCCC2)cc1	-54
Cc1nc(-c2ccccc2)c(NC(=O)c2ccccc2)s1	12
O=C(CSc1cn[nH]n1)Nc1ccc(Cl)cc1	13
Cc1nn(CC(C)C)cc1S(=O)(=O)N1CCCC1c1ccnc2cc(C(C)(C)C)nn12 (stereo unspecified)	-17
C[C@H](CO)N1C[C@H](C)[C@@H](CN(C)Cc2ccc(Oc3ccccc3)cc2)OCc2ccccc2-c2ccccc2C1=O	-43
CCN(c1ccccc1C)S(=O)(=O)c1cc2c3c(c1)CCC(=O)N3CCC2	-2
CN1CCCC2(CCN(Cc3ccccc3Cn3cccn3)C2)C1=O (stereo unspecified)	9
CCOc1ncccc1-c1cncc(C(=O)N2CCOCC2)n1	0
C[C@H](NC(=O)C[C@@H]1C=C[C@@H](NC(=O)c2cccnc2)[C@H](CO)O1)c1ccccc1	-19
COc1cccc(-n2c(=O)c(C(=O)NCc3ccccc3F)c(O)c3cccnc32)c1	100
COc1ccc(C[C@H](NC(=O)[C@H](C)NC(=O)CN2CCOCC2)C(=O)N[C@@H](Cc2ccccc2)C(=O)[C@]2(C)CO2)cc1	-74*
CCOC(=O)c1cnc2c(F)ccc(F)c2c1Oc1cncc(Cl)c1	-8
O=C(Nc1ccc(Br)cc1F)N1CCC2(CC1)Nc1cc(F)ccc1-n1cccc12	390
O=C(CCCn1cncn1)N1CCCC(O)(CO)CC1 (stereo unspecified)	-4
CCOC(=O)c1csc(NC(=O)CSc2cc(OC)ccc2OC)n1	20
Cc1c(C(=O)O)cc(-c2ccccc2)n1CCSCc1c(F)cccc1Cl	44
COc1cc2c(cc1-c1nccn1CCN1CCNC1=O)OCCCO2	-1
CS(=O)(=O)N1CC(=O)N2[C@H](C1)[C@@H](c1ccc(Br)cc1)[C@@H]2CO	-3
CCN1C(=O)N(CCCc2cccnc2)C(=O)C12CCN(Cc1ccc3c(c1)OCCO3)CC2	9
Cc1nonc1CN(C)Cc1cc(Cl)c2c(c1)OCCCO2	-16
[2H]C([2H])([2H])C(O)(CCO[C@@H](C)[C@H]1CC[C@H]2/C(=C/C=C3/C[C@@H](O)C[C@H](O)C3=C)CCC[C@]12C)C([2H])([2H])[2H]	1
CN1Cc2ccccc2CC2(CCN(C(=O)c3ccsc3)CC2)C1=O	19
O=C(c1cn(-c2ccccc2)nn1)N1CCN(C(=O)N2CCOCC2)CC1	17
CN1CCN(c2ncnc3c2c(C(=O)NCC(F)(F)F)c2ccccn23)CC1	6
CN(C)c1ncc(-c2nccn2C2CCN(Cc3ccccn3)CC2)cn1	10
CS(=O)(=O)N1[C@H](CO)[C@@H](c2ccccc2)C12CN(Cc1ccccn1)C2	-42
C=C1C2(C(=O)N3CCC(c4cccc(OC)c4OC)C3)CCC(C2)C1(C)C (stereo unspecified)	14
Cc1ccc(-c2nc(Cn3ccn4nc(-c5ccc6c(c5)OCO6)cc4c3=O)c(C)o2)cc1	19
Cc1ccc(NC(=O)Cc2nc(C(C)C)n[nH]2)cc1S(=O)(=O)N1CCCC1	12
O=C(Nc1cc(C(F)(F)F)cc(C(F)(F)F)c1)Nc1sccc1Cl	-95*

The closing 2 compounds of the part above come first, to join the parts.
SMILES	Tgondii IFNg
Cc1ccc(NC(=O)Cc2nc(C(C)C)n[nH]2)cc1S(=O)(=O)N1CCCC1	12
O=C(Nc1cc(C(F)(F)F)cc(C(F)(F)F)c1)Nc1sccc1Cl	-95*
Cc1oc(-c2ccc(C(=O)N3CCCCCC3)cc2)nc1CN1CCc2ccccc21	-101*
CCOC(=O)C1CCN(C(=O)C2=C(C)C(=O)OC23CCN(C(C)=O)CC3)CC1	-21
CCN1CCC2(CC1)CC(NC(=O)C1CCOC1)c1ccccc1O2 (stereo unspecified)	-4
C[C@H]1CN([C@@H](C)CO)C(=O)c2ccccc2-c2ccccc2CO[C@@H]1CN(C)C(=O)[C@H](Cc1ccccc1)N(C)C	-16
CSc1cccc(CN(C)Cc2nc[nH]c2C)c1	-5
CNS(=O)(=O)c1ccc(CN2CCN(C)C(C(=O)O)C2)cc1 (stereo unspecified)	-1
Cc1ccc(C(=O)N2CCCn3nnc(Cn4ccnc4)c3C2)cc1F	4
COc1ccc(OC)c(NC(=O)c2nnn(Cc3nc(-c4cccc(Cl)c4)oc3C)c2C)c1	54
CC(C)c1nccc(C(=O)N[C@H]2C[C@H]3C(=O)N(C)CC(=O)N3C2)n1	16
CCn1ncnc1C(C)NC(=O)c1nc(C(C)C)cs1 (stereo unspecified)	2
COc1ccc(S(=O)(=O)Nc2ccc3c(c2)OC[C@@H](C)N(Cc2cc(F)ccc2F)C[C@@H](C)[C@H](OC)CN(C)C3=O)cc1	-90*
CN(C)C(=O)c1cccc(C2CN(C(=O)OC(C)(C)C)CCN2)c1 (stereo unspecified)	3
Cc1nc(C(C)C)ncc1C(=O)N1CCC(O)(CN(C)C)C1 (stereo unspecified)	3
COCC(=O)N1CC(=O)N2[C@@H](CO)[C@H](c3ccc(-c4ccccc4F)cc3)[C@@H]2C1	-15
O=C(Nc1ccccc1F)c1cncc(NS(=O)(=O)c2ccc(Br)cc2)c1	-10
Cc1ccc2cc(OC(=O)c3ccc(Oc4cc(Cl)cc(Cl)c4)o3)ccc2n1	4
CC(C)CCN1C[C@@H]2C[C@H](C(=O)N3CCOCC3)[C@@H](C1)O2	-4
CC(C)Oc1ccc(-c2noc(-c3c(O)c4cccc(Cl)c4[nH]c3=O)n2)cc1	1
CN(Cc1cc2n(n1)CCNC2)Cc1cnc(-c2ccccc2)s1	1
O=C1NC(Cc2ccc(F)cc2)(C2CCNCC2)C(=O)N1CCn1ccnc1 (stereo unspecified)	-59
C1CCc2nnnn2CC1	13&8
c1ccc(C2Cn3nnnc3-c3ccccc3O2)cc1 (stereo unspecified)	-68
C[C@@H]1CN([C@@H](C)CO)S(=O)(=O)c2ccc(C#CC(C)(C)O)cc2O[C@H]1CN(C)Cc1ccc(F)cc1	?
CCOc1ccc(C(=O)N2CCC3(CC2)NC(=O)c2ccc(F)cc2N3C)cc1	-27
CCc1csc(CNC(=O)[C@@H](N)CC2CCCCC2)n1	-4
CCc1ccc(-c2c(-c3ccccc3)ncn2CCS(C)(=O)=O)nc1	1
O=C(Oc1ccc(OCc2ccccc2)cc1)c1ccco1	40
Cc1ccc(CNC(=O)N2CCC3(CC2)Nc2ccccc2-n2cccc23)cc1	-19
O=c1nc(-c2ccc(Cl)cc2)nc(-c2ccc(Cl)cc2)[nH]1	-17
COc1ccc2c(c1)c(=O)oc1cc3occ(C(C)(C)C)c3cc12	-32
O=C(c1cccc2ccnn12)N(Cc1ccccn1)CC1CCCO1 (stereo unspecified)	-4
CN(C)c1ncc2c(n1)C1(CCN(C(=O)c3cccnc3)C1)COC2 (stereo unspecified)	-6
O=C(C1CCOC1)N1Cc2nccn2CC(CN2CCCC2)C1 (stereo unspecified)	-7
O=C(CSc1ccc(Br)cc1)Nc1ccc(OC(F)(F)F)cc1	-23
CCn1c(=O)c(-c2nc(-c3ccccc3C)no2)c(O)c2ccc(F)cc21	3
Cc1nn(CC(C)C(=O)N2CCCC(c3nc4ccccc4cc3N)C2)c(C)c1C (stereo unspecified)	52
CC(=O)Nc1ccc(-c2cccc3ccnn23)cn1	12
CC(C)c1cc(CC2(C(=O)NCC3(c4ccccc4F)CCCC3)CCCO2)on1 (stereo unspecified)	-2
CCN(Cc1noc(C)n1)C(=O)c1ccc2cccc(Cl)c2n1	3
CCS(=O)(=O)N1CCOCC1c1csc(C)n1 (stereo unspecified)	27
COc1ccc(CN2CC3CC(C(=O)N4CCOCC4)C(C2)O3)cc1 (stereo unspecified)	-4
CCCCC(=O)Nc1ccc(C)cc1NC(=O)c1oc(CC)nc1C	-59
O=C(Nc1ccc(CN2CCOCC2)cc1)c1cc2ccccc2o1	i
CCC1(C2CCN(Cc3ccnn3-c3ccccc3)CC2)NC(=O)NC1=O (stereo unspecified)	4
C1=C(c2ccccc2)CC(c2ccccc2)=NN=C1c1ccccc1	-87*
Cc1ccc2c(c1)C(=O)NC1(CCN(C(=O)NCc3ccc(F)cc3)CC1)N2C	61
CO/N=C(/C(=O)NC1C(=O)N2C(C(=O)OC(C)OC(C)=O)=C(COC(N)=O)CSC12)c1ccco1 (stereo unspecified)	15
Cc1c(Cl)c(C(=O)NCC(C)Oc2cccnc2)nn1C (stereo unspecified)	6
C[C@H]1CN([C@@H](C)CO)C(=O)c2ccccc2-c2ccccc2CO[C@H]1CN(C)C(=O)CCC(F)(F)F	58
CNc1nc(N2CCN(Cc3nccn3C(C)C)CC2)nc2c1CCC2	9
Cc1ccc(F)cc1-c1ccc(SCC(N)=O)cc1	93
O=S(=O)(O)c1ccc(-c2c3nc(c(-c4ccc(S(=O)(=O)O)cc4)c4ccc([nH]4)c(-c4ccc(S(=O)(=O)O)cc4)c4nc(c(-c5ccc(S(=O)(=O)O)cc5)c5ccc2[nH]5)C=C4)C=C3)cc1	12
COc1ccc(S(=O)(=O)Nc2cccc3c2O[C@H](CN(C)CC2CCCCC2)[C@H](C)CN([C@H](C)CO)C3=O)cc1	-57
Cc1cccc(C)c1NC(=O)C(C)N (stereo unspecified)	6
CCC(NC(=O)c1cc(NC(C)=O)ccc1Cl)c1cc(C)ccn1 (stereo unspecified)	5
Cc1ccc(-n2ncc3c(-n4nc(C)cc4NC(=O)CCC4CCCC4)ncnc32)c(C)c1	-31
Cc1cc(C2CCC2)nc(N2CC(n3cccn3)C2)n1	-3
CCn1c(C2CCCN(C(=O)CCn3c(C)cccc3=O)C2)nn(C)c1=O (stereo unspecified)	0
C[C@H]1CN([C@@H](C)CO)C(=O)c2cccc(NS(=O)(=O)c3cn(C)cn3)c2O[C@H]1CN(C)Cc1ccc(Oc2ccccc2)cc1	-26

Of the compounds above, 13 contain an aryl methoxy group:
SMILES	Tgondii IFNg
CCn1ncc(-c2ccc(OC)cc2C)c1C(=O)OC	1
COc1ccc2c3c(n(C)c2c1)[C@@H](CO)N(C(C)=O)CC31CCN(C(=O)Nc2ccccc2F)CC1	13
COc1ccc(CN2CC3(C2)[C@H](c2ccccc2)[C@@H](CO)N3CC2CCCC2)cc1	-54
COc1cccc(-n2c(=O)c(C(=O)NCc3ccccc3F)c(O)c3cccnc32)c1	100
COc1ccc(C[C@H](NC(=O)[C@H](C)NC(=O)CN2CCOCC2)C(=O)N[C@@H](Cc2ccccc2)C(=O)[C@]2(C)CO2)cc1	-74*
CCOC(=O)c1csc(NC(=O)CSc2cc(OC)ccc2OC)n1	20
COc1cc2c(cc1-c1nccn1CCN1CCNC1=O)OCCCO2	-1
C=C1C2(C(=O)N3CCC(c4cccc(OC)c4OC)C3)CCC(C2)C1(C)C (stereo unspecified)	14
COc1ccc(OC)c(NC(=O)c2nnn(Cc3nc(-c4cccc(Cl)c4)oc3C)c2C)c1	54
COc1ccc(S(=O)(=O)Nc2ccc3c(c2)OC[C@@H](C)N(Cc2cc(F)ccc2F)C[C@@H](C)[C@H](OC)CN(C)C3=O)cc1	-90*
COc1ccc2c(c1)c(=O)oc1cc3occ(C(C)(C)C)c3cc12	-32
COc1ccc(CN2CC3CC(C(=O)N4CCOCC4)C(C2)O3)cc1 (stereo unspecified)	-4
COc1ccc(S(=O)(=O)Nc2cccc3c2O[C@H](CN(C)CC2CCCCC2)[C@H](C)CN([C@H](C)CO)C3=O)cc1	-57

High-throughput results: PubChem BioAssay, Broad Institute
